Compound activity as filed in PubChem BioAssay.
gsp agonist = activates gsp, the McCune-Albright syndrome mutation. gsp mutant cells, cAMP HTRF, 30 min; control for the full effect not named in the record. Potency, µM (top dose mostly 76.9 µM), for inactives: top-dose activation (cAMP increase), hits mostly activators. 340,000 compounds, 0.13% hits; active = well fitted activation curve with a large enough effect; inconclusive = small, poorly fitted or top-dose-only effect, or another doubt; inactive = no such curve, though single readings can be large or run the other way; cell line not stated here;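 also: phosphodiesterase inhibitor Ro 20-1724 added with compounds to block cAMP breakdown; potency is read from the fitted curve at half-maximal effect; nearly all actives have a fitted effect of over 60% in size; about a fifth of the inactives were tested at one dose only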
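Cells stably selected in G418 were plated at 2000/well, grown 16-24 hr, then given compounds in DMSO with the PDE inhibitor […] (300 uM solution added) for 30 min at 37C; cAMP was read by HTRF.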
ClpP mod = qHTS Assay for Activators of ClpP; purified B. subtilis ClpP, FRET peptide cleavage, 20 min; Potency, µM (top dose mostly 57.5 µM), without a hit: at the top dose activity change, negative = active; 340,000 compounds, 1.9% hits; active = well fitted falling curve with a large enough effect; inconclusive = small, poorly fitted or top-dose-only effect; inactive = no such curve, though single readings can be large or run the other way; also: potency is read from the fitted curve at half-maximal effect; the source files actives as falling curves though it sought activators and does not explain the sign; nearly all actives have a fitted effect of over 65% in size; many hits overshoot -100%
Target sequence (P80244 whole entry, looked up): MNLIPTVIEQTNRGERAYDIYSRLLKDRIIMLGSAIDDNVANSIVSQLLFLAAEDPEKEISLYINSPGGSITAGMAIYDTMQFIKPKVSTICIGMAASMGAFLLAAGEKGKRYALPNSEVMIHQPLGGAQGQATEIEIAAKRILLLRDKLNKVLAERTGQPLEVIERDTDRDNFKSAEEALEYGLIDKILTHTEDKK
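Buffer: 100 mM Tris/HCl pH8, 100 mM KCl, 0.05% low protease BSA, 2.5% glycerol, 0.01% Tween-20. ClpP 10 microg/mL final; 20 min RT; delta FRET normalized to ADEP and DMSO controls.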
D2 potentiator = human D2 receptor positive allosteric modulation. DiscoveRx D2 beta-arrestin cells, luminescence, 90 min; 100% = 57 uM dopamine signal. potentiation, % (no concentration beside the values). 360,000 compounds, 0.23% hits; active = potentiation of 50% or more; inconclusive = 30% to 50%; inactive = 30% or less;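 also: compound concentration not given in the record; tested on top of an EC20 dose of dopamine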
Target sequence (P14416 whole entry, looked up): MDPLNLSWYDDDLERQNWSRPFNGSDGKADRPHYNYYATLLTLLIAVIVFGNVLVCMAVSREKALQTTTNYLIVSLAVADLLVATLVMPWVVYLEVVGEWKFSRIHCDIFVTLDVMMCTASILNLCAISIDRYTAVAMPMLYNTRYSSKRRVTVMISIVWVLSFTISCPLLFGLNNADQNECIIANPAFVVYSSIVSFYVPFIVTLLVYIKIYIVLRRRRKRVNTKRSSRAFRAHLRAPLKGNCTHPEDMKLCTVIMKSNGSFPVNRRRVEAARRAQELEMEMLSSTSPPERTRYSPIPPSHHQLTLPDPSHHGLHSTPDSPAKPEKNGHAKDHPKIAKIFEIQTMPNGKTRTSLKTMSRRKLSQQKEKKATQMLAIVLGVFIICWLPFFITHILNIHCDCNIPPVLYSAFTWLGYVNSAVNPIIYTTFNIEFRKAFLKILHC
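D2 cells co-treated with compound plus 50 nM dopamine (EC20) for 90 min at 37 deg C to detect potentiation. Beta-arrestin recruitment was read as enzyme-fragment luminescence after 1 h at ambient temperature. Full response was set by 57 uM dopamine.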
gsp antag = antagonizes gsp, the McCune-Albright syndrome mutation; gsp-mutant cells, cAMP HTRF, 30 min; control for the full effect not named in the record; Potency, µM (highest dose often 76.9 µM), without a hit: top-dose activity change, negative = inhibition, actives largely listed as inhibitors; 340,000 compounds, 0.4% hits; AID 624288; active = falling curve of any shape with a large fitted effect; inconclusive = falling curve, mostly with a smaller effect; inactive = flat or rising curve; cell line not stated here;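 also: intracellular cAMP measured with PDE inhibitor Ro 20-1724 present during compound exposure; potency is read from the fitted curve at half-maximal effect; % is scaled to controls: 0 for no effect and ±100 for the full control effect; nearly all actives have a fitted effect of over 65% in size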
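Measurement of cellular cAMP by homogeneous time-resolved fluorescence following a 30 min compound exposure at 37C. The PDE inhibitor […] was present throughout; the assay buffer was DPBS with 0.05% BSA and 0.005% Tween 20.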
TRPV1 potentiator = potentiators of human vanilloid receptor 1 (TRPV1); Q8NER1; TRPV1-expressing cells, Fluo-8 calcium influx, capsaicin EC20 potentiation; host cell line not named in the record; control for the full effect not named in the record; potentiation, % at 8.33 µM; 320,000 compounds, 0.02% hits; AID 540277; active means potentiation above 80%; inconclusive means 30% to 80%; inactive means below 30%; also: 0% is about no effect
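TRPV1-expressing cells were cultured overnight at 35.5C and loaded with Fluo-8 calcium dye for 40 to 90 min at room temperature. After a 10 s baseline, compound was added and calcium influx was read kinetically for 3 min (ex 480/em 520 nm).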
Menin MLL FP FL = menin-MLL binding inhibition, fluorescein peptide; 290,000 tested, under 10 active; Fluorescence polarization, fluorescein-MLL peptide displacement from menin; FP activity change, % at 61.4 µM; inconclusive = falling polarisation curve, or a change in total fluorescence; inactive = total fluorescence flat and polarisation flat or rising; no compound was filed as active; the % refers to the polarisation; negative = inhibition;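 also: % of control where 0% means no effect; inhibitors lower the polarisation; unlabelled MLL peptide was the positive control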
Sfp PPTase inh = blocks B. subtilis Sfp PPTase activity; Q9F4F7; Biochemical Sfp PPTase activity, qHTS; Potency, µM, for inactives: max response, negative = inhibition, actives largely listed as inhibitors; 310,000 compounds, 3.5% hits; AID 1490; active = well fitted inhibition curve with a large enough effect; inconclusive = small, poorly fitted or top-dose-only effect, or another doubt; inactive = no such curve, though single readings can be large or run the other way;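 also: the enzyme is Sfp with the accession as filed and its product quenches rhodamine fluorescence; potency is read from the fitted curve at half-maximal effect; 0% = enzyme reaction without inhibitor and -100% = no enzyme wells; top concentration of the series not given in the record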
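Buffer: 50 mM Hepes-Na pH 7.6, 10 mM MgCl2, 0.01% Nonidet P-40, 0.01% BSA. Enzyme 15 nM, pre-exposed to compound 15 min; substrates then added and fluorescence change tracked over 30 min.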
* hit, by the source's call; ? = inconclusive; · = not tested or not shown; & = joins results of further samples; [ ] = dose if it differs, or a comment.

SMILES	gsp agonist	ClpP mod	D2 potentiator	gsp antag	TRPV1 potentiator	Menin MLL FP FL	Sfp PPTase inh
CCC(=O)N1Cc2ccccc2-c2ccccc2C1=O	-53%[inhibitor]	?	-2	3%	-9	-2.0	13%
COc1ccccc1NC(=S)NCc1ccc(F)cc1	1%[15.4 µM]	-0.5%	-9	0%	-30	-0.6	20%
CN(Cc1ccccc1)S(=O)(=O)c1ccc(OCC(=O)N2CCC(C(N)=O)CC2)cc1	1%	0.2%	-7	-11%	-6	-0.8	-7%
NC(=O)c1ccc(NC(=O)COC(=O)c2cc3c(s2)CCC3)cc1	-11%	-18%	-8	6%	·	·	·
C/C(=N\NC(=S)NC1CCCCC1)c1c(F)cccc1F	0%	·	-5	-8%	-14	-3.2	13%
CCOc1ccc(OCCOC(=O)CNC(=O)c2ccc(Cl)cc2Cl)cc1	-36%[inhibitor]	-0.5%	-11	-18%	-12	·	·
Cc1ccccc1Oc1ncccc1C(=O)/C(C#N)=C/N(C)C	-24%	1.7%	-1	1%	19	-0.4	7%
CC(C)Cn1c(SCC(=O)Nc2ncccn2)nc2ccccc21	-4%	-2.7%	-2	-1%	5	-0.2	13%
CCCCN1C(=O)c2ccc(C(=O)Nc3c(N)n(CCCC)c(=O)n(C)c3=O)cc2C1=O	-29%	1.0%	-2	-6%	?	4.8	?
COc1ccc(NC(=S)NCc2ccco2)c(OC)c1	?	-22%	-7	7%	5	-4.1	1%

4 entries already listed, sorted by heavy-atom count, smallest number first.
SMILES	gsp agonist	ClpP mod	D2 potentiator	gsp antag	TRPV1 potentiator	Menin MLL FP FL	Sfp PPTase inh
COc1ccccc1NC(=S)NCc1ccc(F)cc1	1%[15.4 µM]	-0.5%	-9	0%	-30	-0.6	20%
Cc1ccccc1Oc1ncccc1C(=O)/C(C#N)=C/N(C)C	-24%	1.7%	-1	1%	19	-0.4	7%
NC(=O)c1ccc(NC(=O)COC(=O)c2cc3c(s2)CCC3)cc1	-11%	-18%	-8	6%	·	·	·
CCCCN1C(=O)c2ccc(C(=O)Nc3c(N)n(CCCC)c(=O)n(C)c3=O)cc2C1=O	-29%	1.0%	-2	-6%	?	4.8	?

Following part.
SMILES	gsp agonist	ClpP mod	D2 potentiator	gsp antag	TRPV1 potentiator	Menin MLL FP FL	Sfp PPTase inh
O=C(CCc1nc(-c2ccccc2F)no1)NC1CCCCCC1	15%	-1.8%	-5	-3%	-10	-3.1	-1%
COc1ccc(-c2cn(CCO)nc2-c2ccc(OC)cc2)cc1	-24%	·	2	-19%	-11	-0.8	-4%
O=C(NC1CCCc2ccccc21)c1cccc(S(=O)(=O)N2CCN(c3ccccc3)CC2)c1 (stereo not given)	-30%	1.6%	-10	1%	26	1.3	23%
CCCn1c(SCc2cc(=O)oc3ccc4ccccc4c23)n[nH]c1=O	11%	?	-9	9%	-7	1.1	-14%
N#CC1C(C#N)N2CCCN2C1c1ccc(Cl)cc1 (stereo not given)	3%	0.6%	-4	-4%	11	3.4	0%
CNS(=O)(=O)c1ccc(N=Cc2c(C)[nH]n(-c3ccc(C)cc3C)c2=O)cc1	-7%[15.4 µM]	·	1	-2%	6	2.8	8%
CC1CCC2CCCCC2N1C(=O)c1cc([N+](=O)[O-])cc([N+](=O)[O-])c1 (stereo not given)	-1%[15.4 µM]	·	10	5%	5	1.4	-22%
COc1cccc(C(C(=O)NC2CCCC2)N(C(=O)c2ccco2)c2ccc(NC(C)=O)cc2)c1OC (stereo not given)	21%[15.4 µM]	·	-3	-5%	3	1.0	11%
O=C(COc1ncnc2ccccc12)Nc1ccccc1[N+](=O)[O-]	-1%[15.4 µM]	·	-2	-10%	5	-1.1	8%
COc1ccc(S(=O)(=O)Nc2ccccc2C)cc1C(=O)N1CCOCC1	-15%[15.4 µM]	·	-2	8%	-7	-4.6	0%
COc1ccc(C2CC(=O)Oc3c(C(CCN4CCN(c5ccccc5)CC4)c4ccc(N(C)C)cc4)c(OC)cc(OC)c32)cc1 (stereo not given)	·	-2.8%	-16	1%	-10	-6.4&0.1	-5%&8%
COCC1CCN(Cc2c(C(=O)N3CCOCC3)nc3c(C)cccn23)C1 (stereo not given)	22%	-4.2%	-4	·	·	·	·
O=C(CCCN1C(=O)c2ccccc2C1=O)N1CCc2ccccc2C1	14%	-1.5%	-10	5%	-6	0.8	10%
COc1ccc2c(c1)c1ncn(CCCN3CCOCC3)c(=O)c1n2C	19%	11%	1	0%	-9	0.9	4%
CS(=O)(=O)c1ccccc1C(=O)N1CCN(Cc2ccccc2)CC1	-22%	·	-1	-1%	17	1.2	14%
COc1cc(OC)cc(C(=O)OCn2nnc3ccccc3c2=O)c1	0%	0.7%	-4	6%	0	-0.8	-3%
COc1ccc(S(=O)(=O)NCC2CCCN(C(=O)CCC(F)(F)F)C2)cc1 (stereo not given)	?	-3.2%	-3	3%	-5	-0.1	21%
Cc1cccc(OCc2n[nH]c(=S)o2)c1C	-6%	-0.9%	-2	-16%	2	-11	-2%
CCc1ccccc1NC(=O)C1CCCN1S(=O)(=O)c1ccc2c(c1)n(C)c(=O)c(=O)n2C (stereo not given)	45%	-23%	-2	0%	18	·	10%
Cn1c(=O)c2c(nc(OC3CCCCCC3)n2C)n(C)c1=O	19%	1.8%	3	-1%	·	·	·
CCOc1ccc(N2CC(C(=O)OCC(=O)NCc3ccccc3)CC2=O)cc1 (stereo not given)	22%	-0.1%	-14	1%	-5	1.4	14%
c1ccc(-c2cnc(-c3ccccn3)nn2)cc1	·	-1.2%	-5	6%	·	·	·
CC(=O)c1ccc(-n2nncc2C)cc1	-5%	-0.4%	-7	3%	-20	1.0	7%
Cc1ccc(C(=O)CN(C(=O)c2ccc(Cl)cc2)N2C(=O)c3ccccc3C2=O)cc1	-43%	0.5%	-3	-1%	21	2.3	17%
CC(=O)Nc1ccc(OS(=O)(=O)c2cc(Cl)ccc2C)cc1	3%	0.4%	-12	0%	8	3.4	9%
CCS(=O)(=O)NCCc1cc2c(OC)ccc(OC)c2[nH]c1=O	9%	-1.2%	-2	7%	4	3.6	21%
CNC(=O)c1ccccc1S(=O)c1ccccc1COC(C)=O (stereo not given)	-2%[15.4 µM]	-0.5%	-2	12%	-11	2.1	14%
Cc1nc(NC(=O)c2cccnc2)ccc1Br	18%	178%	-2	5%	-11	-0.1	8%
O=C(CCCn1c(SCC(=O)c2ccc(O)c(O)c2)nc2ccccc2c1=O)NCC1CCCO1 (stereo not given)	19%	-0.6%	-7	-2%	3	0.1	1%
Cc1nc2c(S(=O)(=O)c3ccccc3)cnn2c(C)c1C	-2%[15.4 µM]	-0.9%	2	5%	82*	0.3	12%

Single records, as listed above:
c1ccc(-c2cnc(-c3ccccn3)nn2)cc1 across the screens: gsp agonist: ·; ClpP mod: -1.2%; D2 potentiator: -5; gsp antag: 6%; TRPV1 potentiator: ·; Menin MLL FP FL: ·; Sfp PPTase inh: ·
Cc1nc2c(S(=O)(=O)c3ccccc3)cnn2c(C)c1C across the screens: gsp agonist: -2%[15.4 µM]; ClpP mod: -0.9%; D2 potentiator: 2; gsp antag: 5%; TRPV1 potentiator: 82*; Menin MLL FP FL: 0.3; Sfp PPTase inh: 12%

The listing continues.
SMILES	gsp agonist	ClpP mod	D2 potentiator	gsp antag	TRPV1 potentiator	Menin MLL FP FL	Sfp PPTase inh
O=c1[nH]c(N/N=C\c2ccc(F)cc2)nc2ccccc12	-17%[15.4 µM]	·	-9	-31%	-6	1.1	?
Cc1ccc2cc(CCNC(=O)c3c(-c4ccccc4Cl)noc3C)c(=O)[nH]c2c1	26%	?	5	-7%	-47	0.1	10%
CC(C)(C)c1ccc(C(=O)NCCc2ccccc2)cc1	-44%	1.2%	-19	?	-25	5.7	-13%
Cc1nn(-c2ccccc2)c(N)c1C1(O)C(=O)N(C)c2ccccc21 (stereo not given)	-9%[15.4 µM]	-1.6%	-9	12%	?	-1.2	-6%
Cn1c(-c2ccc(F)cc2)cnc1NCc1cccc([N+](=O)[O-])c1	3%	1.8%	-8	2%	9	0.6	-25%
O=C(NNC(=O)C1CC=CCC1)c1cccc(Br)c1 (stereo not given)	-4%[15.4 µM]	0.4%	-9	1%	·	·	·
COc1ccccc1COCC(O)CN1CCN(S(=O)(=O)c2cccc(F)c2)CC1 (stereo not given)	-37%	-0.6%	1	-5%	14	·	·
Cn1c(=O)cc(OCC(=O)N2CCN(c3cccc(C(F)(F)F)c3)CC2)c2ccccc21	8%	2.7%	-8	-4%	-39	-1.2	-11%
COc1ccc(C(=O)C2CCCN(C(=O)c3cc4nc(C)cc(C)n4n3)C2)cc1F (stereo not given)	0%[15.4 µM]	·	-6	-5%	-4	-3.3	18%
CCOC(=O)C1=C(C)NC(C)=C(C(=O)OCC)C1C(=O)OCC(=O)c1ccc2c(c1)OCCO2	2%	-5.0%	1	0%	?	3.6	5%
CN=C(Nc1ccccc1)SC1CC(=O)N(c2cccc(OC)c2)C1=O (stereo not given)	-15%	2.4%	-4	8%	-24	4.4	20%
COc1ccc(C(=O)NCCCCc2ccccc2)cc1	18%[15.4 µM]	·	-7	-13%	·	·	·
COc1ccccc1C(=O)COC(=O)COc1cccc2c1OC(C)(C)C2	29%	-0.9%	-10	-11%	2	·	-13%
O=C1Nc2cc(C(=O)N3CCOCC3)ccc2S/C1=C/c1ccccc1F	-56%[inhibitor]	39%	-5	·	·	·	·
O=C(NCCn1ccc2ccccc21)c1ccc2c(c1)OCO2	?	-3.8%	-7	-1%	-4	1.8	4%
Cc1csc2nc(CCNS(=O)(=O)c3ccc4c(c3)OCCO4)cn12	-5%	0.5%	-4	3%	·	2.7	6%
COc1ccc(C(C(=O)NC(C)(C)C)N(C(=O)CNC(=O)c2cccs2)c2ccc(C)cc2)cc1OC (stereo not given)	-29%	-0.9%	-14	-6%	-2	2.2	21%
CCN(CC)c1ccc(/C=N/NC(=O)c2nnn(-c3nonc3N)c2-c2ccc(C)cc2)cc1	29%	-18%	-7	-2%	-2	·	19%
COC(=O)C1=C(C(=O)OC)[C@@H]2N(C)c3ccc(OC)cc3[C@@]23C[C@@H](C(=O)OC)N(C(=O)C2CCC2)C3=N1	·	0.6%	-4	-21%	-15	-0.7[11.7 µM]	10%&-17%
